PABP FP inh – PABP poly(A) RNA binding inhibitors, primary screen, biochemical, fluorescence polarization, uHTS. Polyadenylate-binding protein 1 (Homo sapiens), P11940. AID 2014, 2009. inhibition, % at 35 µM. hit rate 1% among 290,000;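 active means 50% or more with normal probe brightness, or confirmed in later tests; about a fifth of its hits are not listed in these tables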;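 further: calls also rest on retests at 20 µM and on dose response follow-up; controls were probe without protein and protein plus probe with vehicle; some compounds called inactive have numbers as strong as hits; many hits fall short of the cut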
CSC inhib – cancer stem cell viability inhibitors, primary screen, luminescence; hit rate 1.1% among 300,000; inhibition, % at 7.5 µM; AID 2717, 2010; cancer stem cell-like cells viability;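 active means mean at 75% or more and at least half the replicates too; tested in HMLE shEcad cells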;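 further: 0% = median of negative and 100% = median of positive control wells; the first replicate is given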
Rce1 inhib – yeast Rce1p protease inhibitors, primary screen, biochemical, fluorescence, cell-free homogeneous; CAAX prenyl protease 2 (Saccharomyces cerevisiae (strain ATCC 204508 / S288c)), Q03530; calls only; hit rate 0.27% among 290,000; yeast membranes, quenched prenylated peptide cleavage fluorescence; AID 2563, 2010;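 active means fall in fluorescence gain of 50% or more versus controls, with final raw signal at or below 3038400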;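 further: plate controls were neutral control wells for no effect and wells lacking membranes for full effect; tested at 10 µM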
Target sequence (Q03530 whole entry, looked up): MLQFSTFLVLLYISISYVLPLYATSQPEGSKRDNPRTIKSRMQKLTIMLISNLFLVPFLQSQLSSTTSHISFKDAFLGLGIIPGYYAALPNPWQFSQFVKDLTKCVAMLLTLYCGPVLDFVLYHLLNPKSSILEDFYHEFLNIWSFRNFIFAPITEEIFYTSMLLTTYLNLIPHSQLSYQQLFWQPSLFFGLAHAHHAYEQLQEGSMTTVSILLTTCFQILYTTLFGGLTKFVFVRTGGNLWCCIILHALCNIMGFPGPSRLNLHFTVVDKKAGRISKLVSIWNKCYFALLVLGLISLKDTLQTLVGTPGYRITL
Env fusion inh – inhibitors of HIV-1 Env-driven cell-cell fusion, primary screen, HeLa-JRFL effector, CEM21 target cells, luciferase; inhibition, % at 12.3 µM; hit rate 1.1% among 360,000; AID 651610, 2012;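 active means mean replicate inhibition score of at least 50 and every replicate individually at or above 50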;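 further: 0% = plate neutral controls and 100% = maraviroc near 300 nM; one replicate is shown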
eIF4H FP inh – human eIF4H binding inhibitors, primary screen, translation initiation inhibitor project, biochemical, uHTS, fluorescence polarization; hit rate 0.94% among 290,000; Eukaryotic translation initiation factor 4H (Homo sapiens), Q15056; eIF4H fluorescence polarization binding assay; inhibition, % at 35 µM;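 active means 50% or more with normal probe brightness, or confirmed in later tests; about a fifth of its hits are not listed in these tables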;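 further: calls also rest on retests at 20 µM and on dose response follow-up; 0% = protein and probe with vehicle and 100% = probe without protein; strong numbers were not always called active; many hits fall short of the cut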
MT1-MMP act inh – blockers of MT1-MMP proenzyme processing, primary screen, HT1080 RFP-PRO-GFP cells, GFP/RFP fluorescence. AID 651647, 2012. hit rate 0.061% among 360,000. GFP/RFP ratio change, % at 20 µM. GFP/RFP ratio fluorescence, overnight; percent of plate control window, DMSO zero. Matrix metalloproteinase-14 (Homo sapiens), P50281;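 active means GFP/RFP ratio change of at least 30% with cell ATP level not reduced by more than half and red fluorescence within 50% of control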; further: strong numbers were not always called active
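Assay system: HT1080 RFP-PRO-GFP cells. Benchmarks: DMSO vehicle wells and RFP-L50D-GFP reporter cell wells. Times: overnight cell settling, then overnight compound exposure, 37 °C, 5% CO2. Compound: 20 µM single dose, 1% DMSO. Read-out basis: GFP/RFP fluorescence ratio.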
UUG fidelity – modulators of yeast start codon fidelity, primary screen, whole organism, S. cerevisiae, single point, plate reader. S. cerevisiae UUG-firefly luciferase reporter, luminescence/redox ratio. activity score, % at 18.7 µM. hit rate 0.13% among 350,000. AID 602363, 2012;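 active means replicate mean at a twofold rise or more, about +100% in these data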;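 further: firefly luciferase made from a UUG start codon reports start codon fidelity; reporter light over untreated wells divided by growth signal over untreated wells; some hits fall short of that in this replicate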
eIF4H FP inh retest – also measured in eIF4H FP inh; calls as there; inhibition, %; compound at 20 µM; confirmation average;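 mean of two retest wells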
PABP FP inh retest – also measured in PABP FP inh; calls as there; inhibition, %; compound at 20 µM; confirmation repeats;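 mean of two retest wells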
MT1-MMP act inh RFP – also measured in MT1-MMP act inh; calls as there; RFP signal change, %; measured here: RFP expression control read;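 0 = vehicle wells; hits needed this value within 50% of zero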
* = called active by the depositor; i = inactive; / = not tested or not shown; & = joins results of further samples; [ ] = dose if it differs, or a comment.

SMILES | PABP FP inh | CSC inhib | Rce1 inhib | Env fusion inh | eIF4H FP inh | MT1-MMP act inh | MT1-MMP act inh RFP | UUG fidelity | others
COc1ccc(NC(=O)/C=C/c2c(Cl)nc3ccccn23)cc1 | 76* | -7 | i | 6 | 1.5* | 4 | 0 | / | eIF4H FP inh retest=94*;PABP FP inh retest=68*
O=C1CC(c2ccc(Cl)cc2)CC(O)=C1C=NCCO (stereo not given) | -1 | -15 | i | 7 | 6 | 5 | 3 | -5
COc1ccc(CNC(=O)c2c(C)oc3c2C(=O)c2ccccc2C3=O)cc1 | 7 | 100* | i | 64* | -1 | -1 | -19 | -3
COc1ccc(CCC(=O)N/N=C/c2ccc3c(c2)OCO3)cc1 | / | -8 | i | 1 | / | 2 | 6 | /
COc1cccc(CNC(=O)c2cccnc2Sc2ccc(Cl)cc2)c1 | -9 | 0 | i | -12 | -11 | 4 | 1 | -14
CC(C)(C)[C@H]1C=C(C(N)=O)O[C@@H](OCCCCO)C1 | 8 | -10 | i | 8 | -7 | 8 | 7 | -9
CCOC(=O)c1c(CN2CCN(CCO)CC2)n(-c2ccccc2)c2cc(Br)c(O)cc12 | -8 | 1 | i | 10 | -5 | -11 | -7 | /
Cc1ccc(NC(=O)CN(C)C(=O)c2ccc(Cl)c(S(=O)(=O)NCc3ccco3)c2)cc1 | / | -16 | / | 20 | / | 2 | 4 | -11
COc1ccc2c(c1)C(=O)C(=O)N2CC1COc2ccccc2O1 (stereo not given) | 18 | 23 | i | -22 | 0 | 2 | 2 | -15
COc1ccc(C(=O)O/N=C(\N)Cc2ccc(Cl)cc2)cc1OC | -1 | -13 | i | / | 3 | -8 | -16 | /
O=C(COc1ccccc1)Nc1nnc(-c2ccc3c(c2)CCCC3)o1 | -3 | 5 | i | -5 | 8 | 4 | 8 | -19
C/C(=N\Nc1ccccn1)c1ccc(OC(F)F)cc1 | -1 | -8 | i | -29 | 4 | -1 | 1 | /
Cc1ccccc1NC(=O)C1CCCN(S(=O)(=O)c2cnc[nH]2)C1 (stereo not given) | -3 | -5 | i | -45 | -3 | -1 | 8 | -24
C/C(CC(=O)NCc1ccco1)=N\NC(=O)c1ccc(Cl)cc1Cl | -7 | -6 | i | -7 | -2 | 3 | 5 | -11
COCCCNCCCCOc1cccc(Br)c1 | -8 | 23 | i | / | 8 | 2 | 5 | -14
CCC(C)NC(=O)c1cc2c(=O)n3ccccc3nc2s1 (stereo not given) | -5 | 4 | i | -2 | -2 | 2 | 1 | -10
Cc1cc(NC(=O)c2ccc3c(c2)C(=O)N(C2CCCCC2)C3=O)no1 | 4 | -11 | i | / | -8 | 0 | 4 | -14
COc1ccc(NC(=O)CO/N=C/C(=O)Nc2ccccc2C)c([N+](=O)[O-])c1 | / | -3 | / | / | / | -1 | -2 | -24
COCCNC(=O)CSCc1nc(-c2ccc(SC)cc2)oc1C | -4 | -7 | i | -4 | 2 | 1 | -3 | -12
COCCN1C(=O)N[C@@H](c2ccccc2)C(C(=O)OC)=C1C | 0 | -3 | / | -6 | -1 | 1 | 3 | -18
O=C(NNS(=O)(=O)c1ccc(F)cc1)c1cnccn1 | -10 | -8 | i | 7 | -15 | 3 | -1 | -13
C/C(N)=C(/C#N)C(=O)CSc1cc(Cl)ccc1Cl | 4 | -1 | i | -6 | -2 | 1 | 4 | -15
CCNc1c(C(=O)O)ccc2c1C(=O)c1ccccc1C2=O | -6 | 21 | i | 8 | 6 | 16 | 15 | 8
O=C(NCCc1ccccc1)C(=O)Nc1ccc([N+](=O)[O-])cc1 | -2 | -6 | i | -55 | -1 | -1 | 3 | -6
Cc1cccc(N2C(=O)CC(Sc3nc(C)cc(C)n3)C2=O)c1 (stereo not given) | 9 | -9 | i | / | 2 | 6 | 2 | -14
The list continues:
SMILES | PABP FP inh | CSC inhib | Rce1 inhib | Env fusion inh | eIF4H FP inh | MT1-MMP act inh | MT1-MMP act inh RFP | UUG fidelity | others
CCOC(=O)N1CCC(Nc2c(-c3ccccc3)c(=O)c2=O)CC1 | 1 | -1 | i | -24 | 4 | -2 | -5 | -2
O=C(Nc1cccc(S(=O)(=O)N2CCCC2)c1)c1ccc(Cl)nc1 | / | 51 | / | 28 | / | -9 | -21 | -9
CCOC(=O)c1ccc(NC(=O)CN2C(=O)C(CC)SC(CC)C2=O)cc1 (stereo not given) | 12 | 5 | / | 4 | -2 | 0 | 2 | /
O=C(O)c1ccccc1C(=O)NCCc1ccc(Cl)cc1 | 4 | -1 | i | 11 | -1 | -1 | 5 | -26
COc1cc([N+](=O)[O-])ccc1NC(=O)C[n+]1ccccc1 | -3 | -3 | i | 3 | -8 | -8 | -27 | -13
COc1cccc(C(=O)NCCS(=O)(=O)N2CCc3ccccc3C2)c1 | / | -11 | i | -14 | / | -3 | 2 | -1
COc1ccc(OC(=O)N(C)C[C@@H]2OCc3cn(nn3)CCCC(=O)N([C@@H](C)CO)C[C@H]2C)cc1 | / | / | / | -4[16.7 µM] | / | 3 | 4 | -6&2
CC(C)CCOc1ccc(C(=O)NNC(=O)CNC(=O)c2ccccc2F)cc1 | / | 10 | / | -19 | / | 2 | -5 | -16
CC(OC(=O)c1cccnc1Cl)C(=O)Nc1ccc2c(c1)OCCO2 (stereo not given) | -1 | 14 | / | 12 | -8 | -1 | -3 | /
CC(=O)N1CCN(C(=O)c2cc3c(s2)CCCC3)CC1 | / | / | / | -68 | / | 6 | -3 | -11
O=C(Nc1ccnn1C1CCN(Cc2ccccc2OC(F)F)CC1)c1cccc(F)c1 | 5 | -7 | i | -2 | 4 | 0 | -3 | -2
COc1ccc(CNC(=O)Cn2c(=O)oc3ccccc32)cc1OC | 20 | -8 | / | / | -10 | -5 | -3 | /
COc1ccc(/C(C)=N/N=C(\C)c2ccc(OC)cc2OC)c(OC)c1 | -2 | -16 | i | / | -5 | 1 | 2 | -12
O=C1c2ccccc2C(O)(Cc2ccccc2)N1Cc1ccco1 (stereo not given) | -1 | -1 | i | / | -5 | -1 | 2 | 9
COc1ccc(C(=O)Nc2cc(=O)[nH]c3ncnn23)cc1 | -3 | -12 | i | 4 | -6 | 7 | 5 | -13
CCOC(=O)C(C)Sc1nc(-c2ccccc2)nc2ccccc12 (stereo not given) | 14 | 14 | i | -3 | 12 | -1 | -3 | /
Cc1cccn2c(=O)c3cc(C(=O)N4CC(C)CC(C)C4)sc3nc12 (stereo not given) | -8 | -23 | i | 1 | -13 | -2 | 2 | 5
N#Cc1cnn(-c2ccc([N+](=O)[O-])cc2[N+](=O)[O-])c1N | / | / | / | 8 | / | -1 | -3 | 3
Nc1nccc(SCc2ccccc2)n1 | / | / | / | 7 | / | 3 | 4 | -12
Cc1cc(NS(=O)(=O)c2ccc(NC(=S)NC(=O)c3ccc(F)cc3)cc2)no1 | 12 | -6 | i | -29 | 2 | 4 | 1 | -5
COc1ccc(N2C(=O)CNC2=S)cc1 | 27 | 4 | i | -5 | 3 | 3 | 6 | -19
O=P(O)(O)CCP(=O)(c1ccccc1)c1ccccc1 | 5 | -11 | i | / | 3 | -3 | 6 | -19
CS(=O)(=O)N(Cc1ccc(C(=O)NC2CCCC2)cc1)c1ccccc1 | 9 | -2 | i | 27 | -3 | 3 | 6 | /
CCC(=O)NCC(c1ccco1)N1CCN(c2ccc(OC)cc2)CC1 (stereo not given) | 5 | -2 | i | -22 | 0 | 0 | 1 | /
COc1ccc(OC)c(-c2cc(C(=O)Nc3c(C)nn(Cc4ccccc4C)c3C)no2)c1 | -10 | 11 | i | / | 1 | -14 | -17 | /
(cont.)
SMILES | PABP FP inh | CSC inhib | Rce1 inhib | Env fusion inh | eIF4H FP inh | MT1-MMP act inh | MT1-MMP act inh RFP | UUG fidelity | others
Cc1ccc(C)c(N(C(=O)CS(=O)CC(=O)Nc2ccc3c(c2)OCO3)C(C)C(=O)NC2CCCC2)c1 (stereo not given) | 13 | -8 | i | -34 | -5 | 1 | -4 | -2
Cc1ccc(S(=O)(=O)NC(C(=O)N2CCOCCOCCOCC2)C(C)C)cc1 (stereo not given) | -5 | 8 | / | 2 | -15 | -1 | 2 | -8
CN1CCN(c2nc(-c3ccc(Br)cc3)nnc2-c2ccccc2)CC1 | -6 | 15 | i | 12 | 3 | -5 | -6 | 21
O=[N+]([O-])c1c(NCCO)cc(N2CCCCCC2)c2nonc12 | 5 | -5 | i | -5 | -2 | 4 | 3 | -8
Cc1cc(C(=O)CN2C(=O)C(=O)N(Cc3ccco3)C2=O)c(C)n1CCc1ccc(F)cc1 | / | 57 | / | / | / | 2 | -2 | -1
NS(=O)(=O)c1ccc(CCNC(=O)c2cccc([N+](=O)[O-])c2)cc1 | 1 | -3 | i | 24 | 6 | 3 | 6 | /
CC12CN3CC(C)(CN(C1)C3c1ccccc1F)C2 (stereo not given) | 2 | -9 | i | 15 | -6 | 20 | 6 | /
N#Cc1c(F)cccc1N1CCC(C#N)CC1 | 13 | -8 | i | 64* | -6 | 4 | 6 | /
CC(=O)c1ccc(NS(=O)(=O)c2cccc3cccnc23)cc1 | / | / | / | -12 | / | 3 | 5 | -15
CC(C)CN(C(=O)CCCSc1nc2ccccc2[nH]1)c1c(N)n(Cc2ccccc2)c(=O)[nH]c1=O | / | -7 | i | -385 | / | -4 | 1 | -16
COc1ccccc1-c1nc(S(=O)(=O)c2ccccc2)c(N2CCOCC2)o1 | -2 | 5 | i | -7 | 16 | -5 | -1 | -18
Cc1c(Cl)cccc1NC(=O)Nc1cc(C(C)(C)C)nn1C | 0 | -7 | i | 30 | -5 | 5 | -3 | 2
Cc1ccc(NC(=O)CSc2nnc(Cc3ccccc3)o2)c(C)c1 | -7 | 1 | i | -4 | -10 | 2 | 5 | /
COC(=O)c1nn(-c2ccccc2)nc1-c1nn(-c2ccccc2)nc1C(=O)OC | -3 | -5 | i | / | 2 | -2 | -1 | -14
CCCOc1ccccc1C1NC(=O)NC(C)=C1C(=O)OCCOC(C)C (stereo not given) | -5 | -11 | / | / | 3 | 7 | 3 | -8
CSc1ccc(Cl)c(C(=O)NCCOc2cc(C)ccc2C(C)C)c1 | 6 | 7 | i | / | -2 | 0 | -5 | -19
CCOc1ccc(NC(=O)Cn2nnc(-c3ccccc3NC(=O)C3CC3)n2)cc1 | 0 | -1 | i | / | -12 | -7 | -5 | -9
O=C(CCCn1c(=O)[nH]c2ccsc2c1=O)NC1CCCCC1 | 0 | -11 | i | -2 | -11 | -3 | 2 | -17
CCc1ccc(NC(=O)C(C)OC(=O)c2cccc(S(=O)(=O)N3CCc4ccccc4C3)c2)cc1 (stereo not given) | 23 | 2 | / | 11 | -1 | 0 | -8 | /

Filtered by structure, those above containing a cyano group (three)
SMILES | PABP FP inh | CSC inhib | Rce1 inhib | Env fusion inh | eIF4H FP inh | MT1-MMP act inh | MT1-MMP act inh RFP | UUG fidelity | others
C/C(N)=C(/C#N)C(=O)CSc1cc(Cl)ccc1Cl | 4 | -1 | i | -6 | -2 | 1 | 4 | -15
N#Cc1cnn(-c2ccc([N+](=O)[O-])cc2[N+](=O)[O-])c1N | / | / | / | 8 | / | -1 | -3 | 3
N#Cc1c(F)cccc1N1CCC(C#N)CC1 | 13 | -8 | i | 64* | -6 | 4 | 6 | /

Source: PubChem BioAssay (several laboratories)
